NPR1 antag – human Npr1 receptor antagonism; P16066; HEK293 hNpr1 GloSensor cGMP, ANP-stimulated luminescence; Potency, µM (top dose mostly 46.3 µM), for the others: at the highest dose activity change, negative = inhibition, usual class: inhibitors; 76,000 tested, 1.6% active; AID 1347048; active = well fitted inhibition curve with a large enough effect; inconclusive = small, poorly fitted or top-dose-only effect; inactive = no such curve, though single readings can be large or run the other way;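 also: nearly all actives have a fitted effect of over 60% in size; nearly all hits also lower the signal before the agonist is added; a reference antagonist and vehicle were the controls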
Target sequence (P16066 whole entry, looked up): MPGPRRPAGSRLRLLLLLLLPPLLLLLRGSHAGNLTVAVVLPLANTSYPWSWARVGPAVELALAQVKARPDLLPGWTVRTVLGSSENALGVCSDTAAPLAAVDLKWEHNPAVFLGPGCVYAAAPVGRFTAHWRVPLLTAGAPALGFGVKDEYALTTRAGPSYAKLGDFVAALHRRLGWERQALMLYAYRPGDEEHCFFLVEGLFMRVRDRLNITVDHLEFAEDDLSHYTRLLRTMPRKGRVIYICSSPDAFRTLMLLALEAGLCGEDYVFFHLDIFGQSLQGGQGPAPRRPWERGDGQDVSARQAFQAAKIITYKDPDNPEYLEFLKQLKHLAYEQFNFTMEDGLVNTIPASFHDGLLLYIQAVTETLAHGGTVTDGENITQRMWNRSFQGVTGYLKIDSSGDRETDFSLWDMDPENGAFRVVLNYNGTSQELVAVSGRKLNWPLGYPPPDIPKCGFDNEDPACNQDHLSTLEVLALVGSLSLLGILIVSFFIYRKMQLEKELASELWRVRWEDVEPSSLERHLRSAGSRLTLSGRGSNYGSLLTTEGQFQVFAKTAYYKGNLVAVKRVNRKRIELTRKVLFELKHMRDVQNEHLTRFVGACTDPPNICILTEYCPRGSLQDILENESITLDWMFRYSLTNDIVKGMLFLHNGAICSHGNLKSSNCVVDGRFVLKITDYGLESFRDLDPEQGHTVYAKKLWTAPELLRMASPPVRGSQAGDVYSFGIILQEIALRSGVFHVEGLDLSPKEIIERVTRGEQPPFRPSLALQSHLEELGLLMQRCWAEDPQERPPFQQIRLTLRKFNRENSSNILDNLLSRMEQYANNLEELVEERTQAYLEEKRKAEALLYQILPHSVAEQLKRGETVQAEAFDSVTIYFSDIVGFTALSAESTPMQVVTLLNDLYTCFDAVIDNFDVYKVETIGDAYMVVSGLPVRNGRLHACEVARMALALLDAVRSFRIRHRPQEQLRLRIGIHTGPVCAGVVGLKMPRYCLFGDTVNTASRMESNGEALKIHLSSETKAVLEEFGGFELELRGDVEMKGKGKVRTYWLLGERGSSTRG
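HEK293 cells stably expressing human Npr1 and cGMP GloSensor pGS-40F, loaded 2 h with 2% GloSensor reagent, given compound 30 min at room temperature. Luminescence read before and 20 min after 0.1 nM hNppA.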
* marks the source's active call; other numbers are inactive results; ? = inconclusive; [ ] = dose if it differs, or a comment. % is scaled to controls: 0 for no effect and ±100 for the full control effect; potency is read from the fitted curve at half-maximal effect. A portion of the library. The share of hits here may be higher or lower than overall.

SMILES	NPR1 antag
O=C(NCCN1CCOCC1)c1ccc(N2CC3CC(C2)[C@H]2CCCC(=O)N2C3)nc1 (some centres not stated)	-5%
COCCNC(=O)[C@@H]1C[C@H](Oc2ccccc2)CN1C(=O)c1ccc2ncccc2c1	3%
COc1ccc(CNC(=O)N(C)C2CCc3nnc(C)n3CC2)cc1 (configuration not stated)	-1%
Cn1ccnc1CNC[C@H]1Cn2cc(-c3ccccc3)nc2CO1	0%[70.6 µM]
Cc1ccccc1[C@H]1[C@@H](C(=O)NCCC(=O)O)C[C@@](C)(C(=O)O)N1C	0%
CN1[C@@H](CCC(=O)NCc2cccs2)CNC(=O)[C@@H]2[C@H]1CCN2Cc1ccc(C(F)(F)F)cc1	-1%
CS(=O)(=O)c1cnc(NCc2cn3ccsc3n2)nc1C1CCCNC1 (configuration not stated)	-3%
O=C(NCC1CC1)c1cccc(OC2CN(Cc3ccc(F)cc3Cl)C2)c1	?
Cc1nc2c(NC3CCN(C(=O)c4cccn4C)CC3)cccn2n1	-2%
Fc1ccc2nc([C@H]3CCN(Cc4cccs4)C3)[nH]c2c1	?
CCc1ccc(N2CC(c3noc(-c4ccccc4F)n3)CC2=O)cc1 (configuration not stated)	2%
COc1ccc(C)cc1NC(=O)Nc1cccc(-c2ccc(N3CCCCC3)nn2)c1	10µM*
CC(C)CNC(=O)C1CCc2sc(C(=O)N3CCCCCC3)cc2C1 (configuration not stated)	-28%
O=C(Cc1cccc(C(F)(F)F)c1)N[C@H]1CCOC[C@H]1C1CCOCC1	7%
O=C(Nc1ccc2n(c1=O)C[C@H]1C[C@@H]2CN(C(=O)Nc2ccc(F)cc2)C1)c1ccccc1	1%
N[C@@H]1CC[C@H](C(=O)Nc2ccc(CC(=O)N3CCCC3)cc2)C1	1%
O=C(COc1ccc(-c2nnc3n2CCCC3)cc1)Nc1ccccc1	-7%
CC(=O)c1c(C)nn(CC(=O)N2CCOC(C(=O)O)C2)c1C (configuration not stated)	-1%
COC[C@H]1CCCN1Cc1nc(C2(O)CCN(Cc3ccc(OC)cc3)CC2)cs1	-1%[70.6 µM]
Cc1noc(C)c1-c1cc2cc(C(C)C)oc2c(-c2ccc(CO)cc2)n1	-7%[70.6 µM]
COc1ccc(C)cc1NC(=O)C1CCN(c2cnc3nc(C)c(C)nc3c2)CC1	1%
Cc1sc2ccn(C)c(=O)c2c1C(=O)NCc1cccc(Br)c1	-14%
O=S(=O)(NC[C@H]1OC[C@@H](NCc2cccs2)[C@@H]1O)c1ccccc1	2%[70.6 µM]
CCCc1cc(C(=O)N2CCC(=O)N(CC3CC3)C(C(C)C)C2)n[nH]1 (configuration not stated)	3%
Cc1cccc(C(=O)NCCC2CCN(C(=O)Nc3cc(F)ccc3F)CC2)c1	1%
CN(C1CCOCC1)C1CCN(C(=O)c2ccccc2Cl)CC1	2%
CCc1nc(-c2c3n(c(=O)n(Cc4ccc(OC)cc4)c2=O)CCCC3)no1	9%
Cc1cnc(C2CCOCC2)n1CC1CCN(S(=O)(=O)c2cccnc2)CC1	0%
CCC1(CO)CCCN(S(=O)(=O)c2ccc3c(c2)OCCO3)C1 (configuration not stated)	-4%
CCOc1ccc(CN2CCOc3ccc(C(=O)NCc4ccccc4F)cc3C2)cc1	?
CCc1nc(-c2c3n(c(=O)n(CC(=O)Nc4cccc(Cl)c4)c2=O)CCCCC3)no1	2%
COCC1CN(C(=O)NCCc2ccccc2)CC12CCNCC2 (configuration not stated)	2%
Cc1nc(NCCC2CCOC2)c2c(C)nn(C)c2n1 (configuration not stated)	6%
Cc1nc2c(c(N(C)Cc3noc(C4CCCC4)n3)n1)CCNCC2	-2%
COc1ccc(C(=O)N2CC(Oc3ccc(-c4nc(-c5ccccc5)no4)cc3)C2)cc1	1%
O=C(c1cccnc1)N1CCC2(CC1)C(=O)NN=C2c1cccnc1	13%
Cc1ccc(CN2CCCCCNC(=O)[C@@H]3CCC[C@@H]32)s1	-14%
O=C([C@H]1C[C@H](Oc2cccnc2)CN1C(=O)NC1CCCC1)N1CCOCC1	0%
Cc1cccc(C(=O)N2CCC(OC3CCN(C)CC3)CC2)c1	-1%
CCn1ccc(C(=O)NCC(=O)N2CCCCCNC(=O)CC2c2ccccc2)n1 (configuration not stated)	3%
Cc1nc2c(c(-c3ccc(O)cc3)n1)CN(C(=O)c1ccc(C(F)(F)F)cc1)CCC2	-4%
O=C(NC1CCCCC1)c1cc2n(n1)CC(c1ccc(Cl)cc1)OC2 (configuration not stated)	-5%
CN(C)C(=O)N1CCC(c2nc(COc3ccccc3)nn2CCO)CC1	4%
CCCS(=O)(=O)N1CCc2nc(N3CCN(C)CC3)sc2C1	1%
COC[C@@H]1[C@H](NC(=O)c2cc(S(N)(=O)=O)ccc2OC)[C@@H]2CCO[C@H]12	1%
CCc1nc2cc(N3CCC(C(=O)O)CC3)cnc2nc1CC	-1%
O=C(NCCn1ccc2ccc(Cl)cc21)C1CC(=O)N(c2n[nH]c3ccccc23)C1 (configuration not stated)	-13%
CCN1C(=O)CCN(C(=O)CCOC)CC12CCOCC2	3%
O=C1CO[C@H]2CCN(Cc3ccccc3)CC[C@@H]2N1CCc1cccnc1	-6%[70.6 µM]
c1c[nH]c(-c2nc3ccncc3[nH]2)c1	-18%[70.6 µM]

Other structures:
SMILES	NPR1 antag
COc1cccc2c1OCCCN(Cc1cn(-c3ccccc3)nn1)C2	-8%
Cc1cccc2nc(C(=O)N3CCC4(CC3)CC(c3ccccc3)CN(C)C4)cn12 (configuration not stated)	3%
O=C1NC2(CCN(C(=O)c3ccccc3)C2)N=C1c1ccccn1 (configuration not stated)	-6%[70.6 µM]
Cc1ccc(NC(=O)N2CCC3(CC2)CC(Cc2nc(-c4ccccc4)no2)CCO3)cc1C (configuration not stated)	10µM*
CC(C)NC(=O)C(C)[C@@H]1CC[C@@]2(C)CC[C@H](N[S+](C)(=O)[O-])[C@@H](C)[C@@H]2[C@H]1O (some centres not stated)	-4%[70.6 µM]
COc1ccc(C(=O)N[C@H](Cc2ccccn2)C2CC(O)C2)cc1F (some centres not stated)	5%
O=C(NC1C[C@H]2CC[C@@H](C1)N2C(=O)COc1ccc(F)cc1)c1ccncc1 (some centres not stated)	2%
CCCc1noc(-c2cccn3c(CNC(=O)c4ccc(F)cc4)nnc23)n1	-4%
COCCc1noc(C2Cc3ccccc3N2C(=O)Nc2cc(C)cc(C)c2)n1 (configuration not stated)	3%
O=C(CC[C@@H]1CNC(=O)[C@@H]2C[C@H](NC(=O)Nc3ccsc3)CN12)NCc1ccccc1	2%
c1cc(N2CCCCC2)ccc1-c1n[nH]c(C2CCOC2)n1 (configuration not stated)	-29%
COc1ccc(OC)c(CN2CCNc3cc(-c4ccccc4)ncc3C2)c1	-6%[70.6 µM]
Cc1cc(C)cc(NC(=O)Cn2nc3n(c2=O)CCCCC3)c1	0%
CCc1ccccc1NC(=O)Cn1c(N2CCN(c3ccccc3)CC2)nc(C)cc1=O	1%
CC(C)S(=O)(=O)N1CCC(Oc2ncccc2C(=O)N(C)C)C1 (configuration not stated)	-4%
CC(C)CN1CCC(O)(c2csc(CN(C)Cc3cccnc3)n2)CC1	-2%[70.6 µM]
N[C@@H]1CC[C@H](C(=O)N2CCN(Cc3cccc(C(F)(F)F)c3)CC2)C1	4%
O=C(CC[C@@H]1CNC(=O)[C@@H]2C[C@H](NC(=O)Nc3ccc(F)cc3F)CN12)NC1CC1	-7%[70.6 µM]
O=C(CN1CC2CC(C1)[C@H]1CCCC(=O)N1C2)NCCCN1CCc2ccccc2C1 (some centres not stated)	-14%
COCC1CN(C2CCC2)CC12CCN(C(=O)c1ccc(OC)c(F)c1)CC2 (configuration not stated)	-15%

Another view of 5 compounds above:
NPR1 antag	Molecule
-2%[70.6 µM]	CC(C)CN1CCC(O)(c2csc(CN(C)Cc3cccnc3)n2)CC1
4%	N[C@@H]1CC[C@H](C(=O)N2CCN(Cc3cccc(C(F)(F)F)c3)CC2)C1
-7%[70.6 µM]	O=C(CC[C@@H]1CNC(=O)[C@@H]2C[C@H](NC(=O)Nc3ccc(F)cc3F)CN12)NC1CC1
-14%	O=C(CN1CC2CC(C1)[C@H]1CCCC(=O)N1C2)NCCCN1CCc2ccccc2C1 (some centres not stated)
-15%	COCC1CN(C2CCC2)CC12CCN(C(=O)c1ccc(OC)c(F)c1)CC2 (configuration not stated)

The listing continues:
SMILES	NPR1 antag
COc1ccc(-c2cc(C[C@H]3CNCC[C@H]3CC(=O)N3CCN(c4ccccc4OC)CC3)no2)cc1	-20%
Cc1ccc(C(=O)N2CCC(C(=O)N3CCCCCCNC(=O)CC3)CC2)s1	-9%
Cc1ccc(C(=O)N2CCN(C(=O)c3nnn4c3COC(c3ccc(Cl)cc3)C4)CC2)s1 (configuration not stated)	-12%
O=C(O)C1(Oc2ccc3ncccc3c2)CCN(Cc2ncc[nH]2)CC1	-2%
CCNC(=O)N1CCC(Cc2ccc(C(=O)NCCc3c[nH]c4ccccc34)cc2)CC1	14µM*
CCCS(=O)(=O)N1C[C@@H](C(=O)NC)[C@H](c2n[nH]c(C)n2)C1	?
CNC(=O)[C@H]1C[C@H](Oc2cccnc2)CN1S(=O)(=O)c1ccc(F)cc1	-8%
COc1ccc(OCc2nc3c(n2Cc2ccccc2)C(=O)N(Cc2ccccc2)CCN3)cc1OC	2%
CC(C)c1ccc(CC(=O)N2CCCc3ncc(C(=O)NCc4ccccc4)cc32)cc1	-5%[70.6 µM]
Cc1ccc(-c2ncc(NC(=O)c3ccc(Cl)s3)cn2)cc1	-6%
COCC(=O)N1CCC(C(NC(=O)c2ccccc2)C(=O)N2CCCCC2)CC1 (configuration not stated)	-4%
CCCNC(=O)N(C1CCOCC1)C1CCN(C(=O)CCc2ccc(OC)cc2)CC1	-1%
c1cncc(-c2noc(C3CCCN(Cc4cc5n(n4)CCNC5)C3)n2)c1 (configuration not stated)	0%
O=C(c1ccn[nH]1)N1CCC(Oc2ncccc2C(=O)N2CCCCC2)C1 (configuration not stated)	3%
O=C(CO)N1CCCC(N2CCN(c3cccc(C(F)(F)F)c3)CC2)C1 (configuration not stated)	2%
C#CCN(C)Cc1nc(C2(O)CCN(C(=O)C3CCCCC3)CC2)cs1	-11%[70.6 µM]
O=C1CC2CCCC(C1)N2C(=O)c1ccccc1F	4%[70.6 µM]
O=C1CCN(C(=O)COc2ccccc2)CCCC(c2nc(-c3cccnc3)no2)CCN1 (configuration not stated)	2%
O=C(CCn1ccn2nc3c(c2c1=O)CCCC3)Nc1ccc2c(c1)OCO2	-15%
O=C(Cn1ccc2ccccc21)Nc1ccc2c(c1)C(=O)N1CCC[C@H]1C(=O)N2	3%
COc1ccc(C2(C(=O)N3CCCC(CN4CCCC4)CC3)CC2)cc1 (configuration not stated)	-19%
O=C(NCC1CC1)c1cc2n(n1)CC(c1ccc3c(c1)OCO3)OC2 (configuration not stated)	-13%
COCCNC(=O)C[C@@H]1C[C@@H](C(C)C)[C@H](CNS(=O)(=O)c2ccc(OC)cc2)C=C1C	-1%
Cc1noc(-c2ccc(OC3CN(C(=O)CCc4ccccc4)C3)cc2)n1	?
COCCNC(=O)C[C@@H]1O[C@H](CNCc2cccc(Cl)c2)[C@@H](O)[C@H]1O	8%[70.6 µM]
Cc1nc(-c2cccc(NC(=O)N[C@H](C)c3onc(C)c3C(=O)O)c2)no1	-3%[70.6 µM]
O=C1Nc2ccccc2CC12CCN(Cc1ccccc1)C2 (configuration not stated)	0%[70.6 µM]
Cc1noc([C@@H](C)NC(=O)Cc2ccccc2)c1C(=O)O	-1%[70.6 µM]
COCCNc1cc(-c2cc(C(F)(F)F)ccn2)c2cc[nH]c2n1	3%
CCC1(C(=O)NCc2ccc(F)cc2)CCCCC(=O)N1 (configuration not stated)	2%
Cc1cnc(C2CC2)n1C1CCCN(C(=O)c2ccco2)C1 (configuration not stated)	7%
COc1cc(F)ccc1-c1nccc2c(=O)cc(-c3cccnc3)oc12	2%[70.6 µM]
CN1CC2(CCN(Cc3cc(C#N)n(C)c3)CC2)CC(c2ccccc2)C1=O (configuration not stated)	13%
CCn1ccc(C(=O)N2CCOc3ccc(CCC(N)=O)cc3C2)n1	11%
CCN1c2cc(C(=O)NCc3ccccc3)ccc2C(=O)N2CCCCCC21 (configuration not stated)	-6%
CCC(C)NC(=O)CC1=CSC2=NC(C)=C(C(=O)Nc3ccccc3)C(c3cccc(C)c3)N12 (configuration not stated)	?
CCc1nc(CN2CCOc3c(O)cc(-c4nc(C)cnc4C)cc3C2)no1	1%
COCC(=O)N1CCCC(C(=O)NCCc2noc(C3CCCC3)n2)C1 (configuration not stated)	-2%

In another format: entries from further up
Cc1cnc(C2CC2)n1C1CCCN(C(=O)c2ccco2)C1 (configuration not stated)
- NPR1 antag: 7%
CN1CC2(CCN(Cc3cc(C#N)n(C)c3)CC2)CC(c2ccccc2)C1=O (configuration not stated)
- NPR1 antag: 13%
CCc1nc(CN2CCOc3c(O)cc(-c4nc(C)cnc4C)cc3C2)no1
- NPR1 antag: 1%

Screening results (PubChem)
